# Source: PubChem (National Center for Advancing Translational Sciences (NCATS))
# MARV entry inh – Marburg virus entry inhibition. Marburg virus pseudotyped entry inhibition, cell reporter; control for the full effect not named in the record; about a third of the inactives were read at about 46 µM. Potency, µM (highest dose often 37.8 µM), inactives show at the highest dose activity change, negative = inhibition, most hits filed as inhibitors. actives 1.8% (n = 300,000). AID 540276; active = well fitted inhibition curve with a large enough effect; inconclusive = small, poorly fitted or top-dose-only effect, or effect the other way; inactive = flat fitted curve, though single readings scatter; tested in HEK293 cells; about a fifth of its hits are not listed in these tables; also: % is scaled to controls: 0 for no effect and ±100 for the full control effect; luciferase read-out
# RE007 growth inh – less growth of the S. pombe RE007 Vpr strain; actives 0.21% (n = 360,000); S. pombe RE007 Vpr strain, BacTiter-Glo ATP luminescence, 24 h; control for the full effect not named in the record; AID 651644; Potency, µM (doses to about 92.2 µM), inactives show top-dose activity change, negative = less growth; active = well fitted falling curve with a large enough effect; inconclusive = small, poorly fitted or top-dose-only effect; inactive = no such curve, though single readings can be large or run the other way;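 also: % is scaled to controls: 0 for no effect and ±100 for the full control effect; nearly all actives have a fitted effect of over 50% in size; the assay follows cell death caused by Vpr and the record does not say whether a fall means rescue or toxicity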
#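 Fission yeast RE007 carrying one integrated HIV-1 vpr copy, seeded at OD 0.01 in PMG+AL medium with 23 nL pinned compound. Grown 24 h at 30 degrees; viability read by BacTiter-Glo luminescence after 5 min.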
# Lassa entry inh – inhibitors of Lassa virus binding or cell entry; Potency, µM (titrated, usually from 37.9 µM), for the others: at the top dose activity change, negative = inhibition, hits mostly inhibitors; actives 1.2% (n = 300,000); Lassa virus pseudotype entry inhibition, cell reporter; control for the full effect not named in the record; active means well fitted inhibition curve with a large enough effect; inconclusive means small, poorly fitted or top-dose-only effect, or effect the other way; inactive means flat fitted curve, though single readings scatter; tested in HEK293 cells; also: % is scaled to controls: 0 for no effect and ±100 for the full control effect; nearly all actives have a fitted effect of over 50% in size; luciferase read-out
# NS1 function inh – blocks influenza NS1 protein function. S. cerevisiae slowed by influenza A NS1, growth recovery by OD600. Potency, µM (top dose mostly 46.1 µM), for the others: at the top dose activity, positive = more growth. actives 0.4% (n = 270,000); also: actives are rising curves; nearly all actives have a fitted effect of over 50% in size
#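 Recovery from NS1-induced slow growth read by OD600 in budding yeast switched to galactose assay medium (pH 6.0, -URA) at 1:100 dilution. Compound 23 nl per well; the matching strain lacking NS1 serves as control.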
# Cruzain noTriton – inhibitors of Trypanosoma cruzi cruzain without detergent | purified cruzain, Z-FR-AMC fluorescence, no detergent | Potency, µM, for the others: max response, negative = inhibition, hits mostly inhibitors | actives 2.3% (n = 200,000) | AID 1476; active = well fitted curve in the direction sought with a large enough effect; inconclusive = small, poorly fitted or top-dose-only effect, or another doubt; inactive = no such curve, though single readings can be large; an effect the other way counts as inactive or inconclusive;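 also: plate controls were enzyme without inhibitor for no effect and buffer without enzyme for full effect; nearly all actives have a fitted effect of over 40% in size; top concentration of the series not given in the record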
# Target sequence (P25779 123-467 limits assumed): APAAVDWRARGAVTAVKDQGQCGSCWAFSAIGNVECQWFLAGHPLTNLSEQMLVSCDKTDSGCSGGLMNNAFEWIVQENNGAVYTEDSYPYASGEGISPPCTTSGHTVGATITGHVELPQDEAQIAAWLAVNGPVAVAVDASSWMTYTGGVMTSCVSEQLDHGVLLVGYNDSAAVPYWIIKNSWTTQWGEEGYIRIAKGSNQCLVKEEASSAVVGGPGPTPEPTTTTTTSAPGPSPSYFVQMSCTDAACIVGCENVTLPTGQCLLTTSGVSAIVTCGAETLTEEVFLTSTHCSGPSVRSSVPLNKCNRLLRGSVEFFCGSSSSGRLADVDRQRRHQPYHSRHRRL
#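 Purified cruzain at 1.5 nM, pre-incubated 15 min with compound at room temperature in 100 mM sodium acetate pH 5.5, 5 mM DTT, 0.00005% Triton X-100. Reaction started with 2 uM Z-FR-AMC; AMC fluorescence increase over 60 s gives rate.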
# SARS PLP yeast – blocks SARS-CoV papain-like protease in a yeast assay; S. cerevisiae expressing SARS-CoV PLpro, growth rescue; control for the full effect not named in the record; Potency, µM (titrated, usually from 32.9 µM), inactives show at the top dose activity, positive = growth rescue; actives 0.19% (n = 330,000); AID 485353; also: 0% is about no effect; nearly all actives have a fitted effect of over 55% in size; growth read by luminescence after 48 h
# Cruzain Triton – cruzain (T. cruzi) inhibition with detergent | AID 1478 | P25779 | purified cruzain, Z-FR-AMC fluorescence, 0.01% Triton | Potency, µM, for inactives: max response, negative = inhibition, hits mostly inhibitors | actives 0.43% (n = 200,000); active = well fitted curve in the direction sought with a large enough effect; inconclusive = small, poorly fitted or top-dose-only effect, or another doubt; inactive = no such curve, though single readings can be large; an effect the other way counts as inactive or inconclusive;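 also: plate controls were neutral wells for no effect and buffer without enzyme for full effect; nearly all actives have a fitted effect of over 40% in size; top concentration of the series not given in the record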
#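 Cruzain (1.5 nM) preincubated 15 min at RT with compound in 100 mM sodium acetate pH 5.5, 5 mM DTT, 0.01% Triton X-100. Reaction started with 2 uM Z-FR-AMC; AMC fluorescence (ex 360/em 450 nm) change over 60 s gave rate.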
# 2A StopGo – lowers the luciferase signal of an FMDV 2A StopGo reporter | actives 1.2% (n = 410,000) | Potency, µM (highest dose often 57.9 µM), inactives show at the top dose signal change, negative = less light | AID 1159524 | human cells with a luciferase reporter of 2A StopGo recoding; control for the full effect not named in the record; active = well fitted falling curve with a large enough effect; inconclusive = small, poorly fitted or top-dose-only effect; inactive = no such curve, though single readings can be large or run the other way; tested in HEK293T cells; also: % is scaled to controls: 0 for no effect and ±100 for the full control effect; nearly all actives have a fitted effect of over 45% in size; luciferase light after 4 h
# * hit, by the source's call; ? = inconclusive; · = not tested or not shown; & = joins results of further samples; ! = a repeat was not active; [ ] = dose if it differs, or a comment. Unless noted, calls follow the shape of the dose curve; as a rule, active means well fitted rising curve with a large enough effect; inconclusive means small, poorly fitted or top-dose-only effect; inactive means no such curve, though single readings can be large or run the other way. Potency is read from the fitted curve at half-maximal effect. Rows are unselected. About 4.8% of those tested had a hit in this group.
SMILES	2A StopGo	Lassa entry inh	MARV entry inh	NS1 function inh	Cruzain noTriton	SARS PLP yeast	Cruzain Triton	RE007 growth inh
C[n+]1ccc(/C=C/c2cccs2)cc1	-21.8%	·	·	-2.5%	·	0.6%	·	3.1%
CCc1ccc(N/C(SCc2ccccc2C)=C(/C#N)C(=O)NCc2ccco2)cc1	-10.0%	8.2µM*	?	8.6%	-24.8%	-3.6%	0.9%	-6.3%
Cc1ccc2ncc(NC(=O)c3ccc(F)cc3)c(=O)n2c1	40.1%[activator]	?	6.9%	-23.5%	-11.5%	2.1%	-1.1%	3.3%
Cc1nc2c(C(=O)NCc3ccccc3Cl)c[nH]n2c(=O)c1Cc1cccc(Cl)c1	3.9%	-4.4%[46.1 µM]	1.1%[46.1 µM]	·	-19.7%	·	-21.1%	·
O=C(Cc1ccc2c(c1)CCCC2)Nc1ccccc1Cl	·	?	16.9%	-0.7%	1.1%	7.0%	-1.0%	4.4%
COc1ccc(Nc2oc(/C=C/c3ccc(OC)c(OC)c3)nc2C#N)cc1	-7.8%	0.6%[46.1 µM]	-0.2%[46.1 µM]	·	16.0%	·	-4.2%	·
COc1ccc(OC(C)C(=O)N2CCN(c3ccccn3)CC2)cc1 (stereo not drawn)	-9.2%	-0.8%	0.2%	-8.3%	7.0%	2.9%	0.9%	-16.2%
O=C(c1ccc2ncsc2c1)N1CCN(c2nc3ccccc3s2)CC1	?	?	-3.8%	8.4%	·	-4.5%	·	9.3%
O=C(CSc1nc2ccccc2c(=O)n1-c1ccc(OC(F)F)cc1)NC1CC1	-4.5%	-4.0%	18.1%	·	·	-2.7%	·	-6.9%
COc1cc(/C=N/N(C)c2ccccc2)cc(Cl)c1O	42.7%[activator]	?	15.9%	-150.8%	5.4%	-26.5%	-16.1%	28.2µM*
CCOc1ccc(CCNC(=O)C(C)N2C(=O)CC(C)(C)Sc3ccccc32)cc1 (stereo not drawn)	-21.6%	·	·	-6.0%	·	-2.2%	·	11.2%
CC(C)Oc1ccc(C(CC(=O)O)NC(=O)Cc2ccc(Cl)cc2)cc1 (stereo not drawn)	-1.7%	7.5%	-1.7%	5.9%	·	0.2%	·	-8.3%
CCOc1ccc(Nc2nc(N)nc(CCl)n2)cc1	13.4%	?	?	4.7%	·	-0.8%	·	2.3%
Cc1cccc(Cn2c(=O)n(Cc3ccco3)c(=O)c3ccccc32)c1	-18.3%	-13.9%	7.0%	-43.1%	-14.1%	-18.1%	-11.1%	40.5%
COc1ccccc1S(=O)(=O)Cc1ccc(C(=O)NC2CC2)o1	-3.2%	·	·	-2.6%	·	1.9%	·	17.8%
Cc1nc2ccc(Nc3nc4cc(S(=O)(=O)N5CCOCC5)ccc4o3)cc2s1	-13.2%	-14.2%	-19.2%	-95.0%	?	3.9%	-11.7%	-25.0%
O=C(CSc1nc2ccccc2c(=O)n1Cc1ccco1)c1ccc(F)cc1	?	?	0.8%	-5.5%	5.8%	-2.2%	-1.7%	1.0%
c1ccc(-c2cn3cccnc3n2)cc1	·	5.8%	17.4%	-2.3%	?	-5.8%	?	-4.5%
C=CCn1c(CSc2nc3ccccc3s2)n[nH]c1=S	-13.1%	-1.8%	?	-23.1%	-7.1%	-10.1%	0.6%	5.0%
NNC(=O)c1csc(Cc2c(Cl)sc3ccc(Cl)cc23)n1	-20.6%	-12.9%[46.1 µM]	-9.2%[46.1 µM]	?	·	-0.5%	·	16.9%
COc1ccc2c(c1)-c1c(ssc1=S)C(C)(C)N2	·	2.4%	4.6%&4.6%	?	-15.5%	-30.1%	-11.2%	-23.1%
CC(C)NC(=O)c1cccc2c1-c1ccccc1C2=O	-6.1%	·	·	-4.8%	·	-0.5%	·	14.6%
O=C(Nc1ccccc1C(F)(F)F)C1CC(=O)N(c2ccccc2F)C1 (stereo not drawn)	-5.1%	17.7%	12.3%	-8.7%	-1.9%	13.5%	5.2%	-7.8%
Cc1ccc(S(=O)(=O)N2CCN(C(=O)CNC(=O)c3sc4ccccc4c3Cl)CC2)cc1	-3.2%	?	-4.1%	·	·	8.3%	·	11.7%
O=C(Nc1nc2n(n1)C(c1ccc(F)cc1)C=C(c1ccccc1)N2)c1ccco1 (stereo not drawn)	-15.9%	-11.1%[46.1 µM]	-18.7%[46.1 µM]	·	18.6%	·	-8.3%	·
COc1ccc(/C=C(/NC(=O)/C=C/c2ccccc2)C(=O)O)cc1	17.7%	-3.2%	26.5%[46.1 µM]	·	·	2.0%	·	17.3%
Cc1cc(Cl)ccc1OC(C)C(=O)O (stereo not drawn)	-15.6%	·	·	2.9%	7.9%	0.7%	3.0%	6.1%[18.4 µM]
Cc1ccc(S(=O)(=O)N(c2nc(NC(C)C)nc(NC(C)C)n2)n2cnnc2)cc1	-29.3%	4.8%	?	-12.5%	-3.8%	15.9%	-3.4%	-2.2%
CC1(c2ccccc2)NC(=O)N(CC(=O)Nc2ccc(N3CCOCC3)cc2N2CCOCC2)C1=O (stereo not drawn)	1.8%	23.3%	-0.2%	·	·	-3.3%	·	15.0%
COC(=O)Nc1ccccc1C(=O)N1CCC(O)(c2ccc(Cl)cc2)CC1	-8.2%	-0.4%	-2.0%	-16.0%	18.9%	?	1.5%	11.9%
Cc1nc2ccc(NC(=O)N3CCCCC3)cc2nc1C	31.9%[activator]	16.6%	-0.7%	-2.6%	-13.5%	13.5%	-4.3%	4.2%
COc1cc(-c2nc3n(n2)C(c2ccncc2)C(C(N)=O)=C(C)N3)cc(OC)c1OC (stereo not drawn)	7.8%	0.5%	-1.7%	5.2%	-8.6%	3.6%	-2.5%	-0.1%
CCC(C(=O)Nc1ccccc1OC)n1c(C(=O)OC)cc2sc(Cl)cc21 (stereo not drawn)	-20.1%	·	-49.5%[46.1 µM]	·	-0.4%	·	-4.3%	·
COc1cc2ccccc2cc1C(=O)Nc1nc(C)c(C(C)=O)s1	74.9%[activator]	·	·	2.5%	·	3.9%	·	4.8%
CC(C)Cc1nc2oc3c(=O)[nH]cnc3c2c2c1CCCC2	-23.6%	3.3%	3.1%	-12.2%	?	10.8%	-1.6%	14.8%
COc1cccc(NC(=O)Nc2cccnc2)c1	47.3%[activator]	·	·	-2.9%	·	-0.8%	·	-4.9%
O=C(Nc1ccc(S(=O)(=O)Nc2ncccn2)cc1)c1ccccc1NS(=O)(=O)c1ccc(F)cc1	36.1%[activator]	-0.3%	?	-2.5%	·	1.6%	·	10.3%
COc1ccc(CCn2c(=O)c3cccnc3n(CC(=O)Nc3ccc(C)cc3C)c2=O)cc1OC	0.0%	·	13.8%[46.1 µM]	·	0.9%	·	-1.7%	·
CCOc1ccc2ncc(S(=O)(=O)c3ccccc3)c(N3CCC4(CC3)OCCO4)c2c1	·	-13.5%	-34.5%	0.6%	?	-6.1%	-4.4%	·
N#Cc1ccsc1NC(=O)CSc1nnc(-c2ccccc2)o1	30.0%[activator]	10.5%	-6.2%[46.1 µM]	6.9%	3.1%	-1.0%	3.3%	-3.9%
COc1ccccc1N1CCN(C(=O)c2ccc(Cn3c(=S)[nH]c4cc5c(cc4c3=O)OCO5)cc2)CC1	-20.8%	-17.3%	?	·	·	0.6%	·	1.4%
Cc1nn(Cc2c(F)c(F)c(F)c(F)c2F)c(C)c1NC(=O)c1ccc(COc2ccc(F)cc2)o1	?	-21.9%	3.66µM*	-4.7%	?	-3.8%	-1.1%	-1.8%
COC(=O)c1cc(CSc2nc3ccc(C)cc3[nH]2)oc1C	?	-23.8%	?	-1.5%	-6.9%	-0.6%	-3.0%	-10.9%
C[C@]12CC[C@H](O)CC1=CCC1C2CC[C@@]2(C)C1CC[C@@H]2NC(=O)[C@@H](N)CO (stereo partly drawn)	-15.4%	5.8%[46.1 µM]	?	·	·	·	·	-13.2%
CCC(=O)N1CCc2cc(Br)cc(S(=O)(=O)N3CCCC(C(=O)NCc4ccc(C)cc4)C3)c21 (stereo not drawn)	-2.1%	-35.5%[46.1 µM]	-1.2%[46.1 µM]	·	-8.3%	·	-4.8%	·
N=C1CCC(=N)c2c1c(O)c1ccccc1c2O	-15.7%	6.6%[46.1 µM]	?	-30.6%	·	-4.2%	·	?
CN(C(=O)COC(=O)c1cc(NS(=O)(=O)c2cc([N+](=O)[O-])ccc2Cl)ccc1O)C1CCCCC1	?	?	?	?	?	10.9%	-3.8%	-2.6%
C=C1CCN([C@H](C(=O)NCc2ccc(Cl)c(Cl)c2)C(C)C)S(=O)(=O)c2ccccc21	-20.2%	·	·	-4.0%	·	0.3%	·	11.0%
CC(=O)N1C(=O)c2cccc3cccc(c23)C(=O)N1C(C)=O	-12.2%	-0.4%	?	1.9%	-1.3%	1.9%	-4.4%	4.8%
O=C(Nc1ncccc1O)c1ccc(S(=O)(=O)N2CCCC2)cc1	1.1%	-16.6%	?	·	·	-6.0%	·	5.3%

# Additional records.
SMILES	2A StopGo	Lassa entry inh	MARV entry inh	NS1 function inh	Cruzain noTriton	SARS PLP yeast	Cruzain Triton	RE007 growth inh
O=C(Nc1ccccc1)N1CC=C(c2ccccc2)CC1	·	·	-0.3%	-53.6%	-29.0%	-2.8%	-1.9%	·
Cc1cc(C(=O)COC(=O)CNC(=O)c2ccccc2)c(C)n1CC1CCCO1 (stereo not drawn)	15.8µM*	14.3%	-6.4%[46.1 µM]	-1.1%	·	1.8%	·	-6.3%
COc1ccc(-c2cc(C(F)(F)F)nc(S(C)(=O)=O)n2)cc1	20µM*	23.1µM*	13µM*!	-39.4%	2.6%&8.3%	-35.9%	-10.8%&-7.3%	-21.1%
CC(=O)N1c2ccc(S(=O)(=O)NCC3CCC(C(=O)NCc4ccccc4)CC3)cc2CC1C (stereo not drawn)	-4.9%	·	·	-2.9%	·	5.6%	·	-11.3%
